# Source: PubChem (National Center for Advancing Translational Sciences (NCATS))
# VACV mCherry inh = vaccinia inhibition (mCherry reporter); Vaccinia virus mCherry reporter infection, fluorescence; about a quarter of the inactives have no number; Potency, µM (highest dose often 36.5 µM), for the others: at the top dose activity change, negative = inhibition, most hits filed as inhibitors; hit rate 0.63% among 310,000; active = well fitted inhibition curve with a large enough effect; inconclusive = small, poorly fitted or top-dose-only effect; inactive = no such curve, though single readings can be large or run the other way; tested in A549 cells; also: nearly all actives have a fitted effect of over 35% in size; inactives centre near -10
# Vaccinia Venus = inhibitors of vaccinia virus (Venus reporter); AID 720580; Vaccinia virus Venus reporter expression, fluorescence; Potency, µM (highest dose often 36.5 µM), inactives show top-dose activity change, negative = inhibition, actives largely listed as inhibitors; hit rate 0.46% among 330,000; active means well fitted inhibition curve with a large enough effect; inconclusive means small, poorly fitted or top-dose-only effect; inactive means no such curve, though single readings can be large or run the other way; tested in A549 cells; also: nearly all actives have a fitted effect of over 30% in size; inactives centre near -10
# Starred values were filed as active, the others as inactive; i = inactive; u = inconclusive; x = not tested or not shown; & = joins results of further samples; [ ] = dose if it differs, or a comment. % is scaled to controls: 0 for no effect and ±100 for the full control effect; potency is read from the fitted curve at half-maximal effect.
Molecule,VACV mCherry inh,Vaccinia Venus
Cc1ccc(-n2ccc(=O)c(C(=O)Nc3ccc(S(=O)(=O)N4CCOCC4)cc3)n2)cc1,i,-10.2%
C=C1C(=O)OCC2C(C(=O)O)=CC3C(C)C(C)=CC123 (stereo not drawn),u,u
CNC(=O)CN(c1cc(C)ccc1C)S(C)(=O)=O,i,-10.8%
Cc1sc2ncn(CC(=O)N3CCC(C(N)=O)CC3)c(=O)c2c1S(=O)(=O)N1CC(C)CC(C)C1 (stereo not drawn),-8.1%,15.3%
CCc1ccc(S(=O)(=O)c2cn(C)c3cc(N4CCC(C)CC4)c(F)cc3c2=O)cc1,-10.1%,-12.7%
O=C(NCc1ccccc1)C12CN(Cc3ccccc3)CC1C(c1cccc([N+](=O)[O-])c1)=NO2 (stereo not drawn),u,-26.3%
O=C(COC(=O)c1ccccc1[N+](=O)[O-])NNC(=O)c1cccs1,-0.2%,-4.2%
Cc1ccc(N(CC(=O)NCC2CCCO2)C(=O)CCC(=O)Nc2ccccn2)cc1C (stereo not drawn),-17.5%,-10.0%
COC(=O)c1cc(=O)nc(NN=Cc2ccc(OC)cc2)s1,-16.5%,-3.6%
COc1ccc2nc(SCc3cccnc3)c(C#N)cc2c1,x,-1.8%
Oc1c(C(c2ccc(Br)cc2)N2CCOCC2)sc2nc(-c3ccco3)nn12 (stereo not drawn),4.9%,-3.5%
CN(C(=O)Cn1ncc2c1-c1ccccc1OC2)c1ccc(Br)cc1,-10.9%,-9.5%
Cc1cc([N+](=O)[O-])c(C)cc1-c1ccc(/C=N/NC(=O)Cn2nnnc2N)o1,3.8%,6.7%
COc1cccc(OC)c1C(=O)NC(=S)Nc1cccc(NC(=O)c2ccco2)c1,-14.5%,-0.8%
CC1=C(C(=O)OC2CCCCCC2)C(c2c(Cl)cccc2Cl)CC(=O)N1 (stereo not drawn),-3.5%,-7.9%
Cc1nn(-c2ccccc2)c(C)c1C(=O)OCC(=O)N1c2ccccc2NC(=O)C1(C)C,-20.0%,-9.7%
COc1ccc2c(c1OC)C(=O)N(c1cccc(NC(C)=O)c1)C2,-10.7%,-25.7%
CC1(C)OC(=O)C=C[C@]2(C)[C@H]3CC[C@@]4(C)[C@H](C(=O)O)OC(=O)[C@H]5O[C@]54[C@]3(C)C(=O)C[C@@H]12,-13.2%,-1.5%
COc1ccc(NC(=O)C2Cc3c(-c4cccc(NC(C)=O)c4)ccnc3O2)cc1OC (stereo not drawn),u,u
CC(NC(=O)c1ccccc1Cl)C(=O)N1CCN(Cc2ccc3c(c2)OCO3)CC1 (stereo not drawn),-21.0%,-8.0%
O=C(CC1NCCNC1=O)Nc1ccc([N+](=O)[O-])cc1 (stereo not drawn),1.7%,6.2%
CCc1ccc(N(CC(=O)NCc2ccc(OC)cc2)C(=O)CCC(=O)Nc2ccccn2)cc1,-15.4%,-10.4%
COc1ccccc1CN1C(=O)CN(C2CCCC2)C(=O)C1c1ccc(F)cc1 (stereo not drawn),i,2.7%
O=C(CNC(=O)CNC(=O)c1ccc(Cl)cc1Cl)NCc1cccc(Cl)c1,i,-6.4%
CCOC(=O)Cn1cc(C=C2C(=O)N(C)C(=O)N(C)C2=O)c2ccccc21,-18.3%,3.0%
Cc1cc2ncn(CC(O)COC3CCCCC3)c2cc1C (stereo not drawn),x,-12.1%
COc1ccc(N(C(=O)c2csnn2)C(C(=O)NC2CCCC2)c2cccs2)cc1 (stereo not drawn),-11.4%,3.6%
COc1ccc(C=CC(=O)c2ccc(OCc3ccccc3)c(OC)c2)cc1OC,28.2µM*,11.2µM*
CCC(Cc1ccccc1)NC(=O)Cn1nc(C)n2c(cc3occc32)c1=O (stereo not drawn),-9.0%,-0.4%
CC(=O)N1CCN(Cc2nc3cc(NC(=O)COc4cccc(C)c4)ccc3n2C)CC1,u,-8.7%
Cc1ccc(S(=O)(=O)Nc2c(C)nc3nc(C)[nH]n3c2=O)cc1,-18.0%,-11.4%
COc1ccccc1CN(Cc1cccnc1)S(=O)(=O)c1ccc(-n2cnnn2)c(OC)c1,-19.5%,-8.8%
CC(C)(C)c1cc(CN2CCN(CCO)CC2)cc(C(C)(C)C)c1O,-11.1%,-11.7%
CC(C)CCN1CCNC(=O)C1CC(=O)N(C)CCCN1CCOCC1 (stereo not drawn),i,-11.3%
O=C(CNC(=O)C12CC3CC(CC(C3)C1)C2)NC1=NCCS1,-15.7%,-3.3%
O=C(CCNC(=O)c1ccc(Cl)cc1)NCC(c1ccco1)N1CCCCC1 (stereo not drawn),-17.9%,-0.7%
Cc1cc(C)c(C#N)c(SCCS(=O)(=O)Cc2ccccc2)n1,-17.2%,u
O=C1CC(N2CCN(S(=O)(=O)c3ccccc3F)CC2)C(=O)N1c1ccc(F)cc1F (stereo not drawn),-10.0%,16.8%
Cc1cc(C)c2cc(C=O)c(Cl)nc2c1,i,1.1%
COc1ccc(OC)c(NC(=O)CN2C(=O)COc3ccc(S(=O)(=O)NC4CCCC4)cc32)c1,-4.3%,-8.9%

# Complete entries from above. Order of screens: VACV mCherry inh, Vaccinia Venus
# Profile of O=C(CNC(=O)CNC(=O)c1ccc(Cl)cc1Cl)NCc1cccc(Cl)c1 : i, -6.4%
# Profile of CC1=C(C(=O)OC2CCCCCC2)C(c2c(Cl)cccc2Cl)CC(=O)N1 (stereo not drawn) : -3.5%, -7.9%

# Further compounds follow.
Molecule,VACV mCherry inh,Vaccinia Venus
COc1ccc(C(=O)Nc2nnc(SCC(=O)NCc3ccco3)s2)cc1OC,-14.3%,-11.5%
O=[N+]([O-])c1cc([N+](=O)[O-])c(Oc2c(F)cccc2F)cc1NN1CCCCC1,u,-9.4%
C=CCN1C(=O)c2ccc(C(=O)OCC(=O)N3CCN(c4ccccc4)CC3)cc2C1=O,i,-5.7%
CC(C)(C)N=C1C([N+](=O)[O-])=CC=C2C1=NC1(CCCCC1)N2O,-18.7%,-19.8%
Cn1cc([N+](=O)[O-])c(C(=O)N/N=C/c2ccc([N+](=O)[O-])cc2)n1,i,-5.4%
CC[C@@H]1CC2=C(C(=O)OC(C)(C)O2)[C@@H](c2ccc(Cl)cc2)O1,13.3%,-6.9%
CC1(C)CC(=O)c2cc(-c3nc(-c4ccccc4)cs3)c(=O)[nH]c2C1,-16.7%,-12.9%
O=C(/C=C/c1ccc(F)cc1)NCc1cccs1,i,-14.3%
Cc1ccc2c(c1)c(Sc1ccccc1)c(CC(=O)O)n2C,-13.1%,-3.5%
CC(=O)c1c(C)oc2c(Br)cc(NS(=O)(=O)c3ccc(Br)cc3)cc12,-12.4%,8.0%
COc1ccc(OC)c(CN2CCN(Cc3cccc4ccccc34)CC2)c1,-23.1%,-17.3%
NS(=O)(=O)c1ccc(N=Cc2c(O)c3ccccc3oc2=O)cc1,-9.2%,-10.1%
CCOc1cc(S(=O)(=O)NCCc2c(C)[nH]c3ccc(C)cc23)ccc1Br,-20.7%,-7.2%
Cc1nccn1CC1CCC2C(C1=O)c1ccccc1N2C (stereo not drawn),-21.1%,-13.6%
COC(=O)c1sccc1NC(=S)N1CCC(C)CC1,-27.3%,-21.9%
COC(=O)c1cc2sccc2n1CC(=O)Nc1cccc(SC)c1,i,4.0%
CCC(=O)N1CCc2cc(CNC(=O)c3ccccc3C)ccc21,-8.9%,-1.4%
CCC(C)n1cnc2c(c1=O)c1nc3ccccc3nc1n2Cc1ccc(OC)cc1 (stereo not drawn),-14.5%,-4.9%
COc1cc([N+](=O)[O-])c2ncsc2c1,-13.9%,-9.1%
O=C(Nc1nc(OCC(F)(F)F)cnc1/C=C\c1ccccc1)c1ccccc1,-18.0%,-13.8%
COc1ccc(/C=C(\NC(=O)c2cccs2)C(=O)Nc2ccc(C)cc2)cc1OC,i,-14.1%
O=C(N1CCCCCC1)N1CCN(S(=O)(=O)c2cccc([N+](=O)[O-])c2)CC1,-21.2%,-24.7%
COc1ccc2c(-c3ccc(OCCN4CCOCC4)cc3)c(-c3ccccc3OC)sc2c1,i,0.0%
Cc1cc(C)c2oc(-c3cccc(NC(=O)c4ccc(F)cc4)c3)nc2c1,x,5.7%
CCCNC(=O)c1ccc(Cn2c(SCC(N)=O)nc3ccccc3c2=O)cc1,-2.8%,-7.3%
CSc1ccc(CCNC(=O)CCc2nnc3ccc(N4CCCCC4)nn23)cc1,-10.8%,-11.0%
COc1ccc2c(c1)O[C@@H]1c3ccc(OC)cc3OCC21 (stereo partly drawn),-5.1%,-2.7%
O=C(Nc1ccc2c(c1)OCCO2)C(c1ccnc2ccccc12)N1CCN(c2ccc(C(F)(F)F)cn2)CC1 (stereo not drawn),i,-3.0%
O=C(c1cc(COc2cccc(C(F)(F)F)c2)on1)N1CCC(c2ccccc2)CC1,-2.0%,-19.7%
CC(C)c1ccc(N2C(=O)NC(=O)/C(=C/C=C/c3ccco3)C2=O)cc1,4.3%,42.2%[activator]
O=C(CN1CCN(c2nc(-c3ccccc3)cs2)CC1)NNC(=O)c1ccc(Br)cc1,-12.3%,-19.3%
O=S(=O)(NC1=NCCCCC1)c1ccc(F)cc1F,-15.5%,-0.2%
Cc1nc2ccc(C(=O)N3CCN(c4ccccn4)CC3)cc2s1,6.7%,2.5%
O=C1CSC(c2ccccc2)N1c1ccc(F)cc1F (stereo not drawn),-10.1%,5.3%
COc1cc(-c2coc3c(C(=O)NC4CCCCC4)cccc23)ccc1O,4.0%,-18.9%
CC1CC(C)CN(C(=O)C2CCN(S(=O)(=O)c3ccc4c(c3)CC(C)N4C(=O)C3CC3)CC2)C1 (stereo not drawn),i,-12.7%
Cc1ccc(-c2nc3ccc(C)cn3c2Cc2cccc(F)c2)cc1,-11.0%,-6.5%
COC(=O)c1ccc(Cl)cc1NC(=O)N1CC2CCCN2c2ccccc21 (stereo not drawn),-10.4%,-16.4%
O=C(OCC(=O)N(C1CCCCC1)C1CCCCC1)c1ccc(O)cc1,i,-14.5%
CCCCCn1c(N)c(-c2nc3ccccc3o2)c2c([N+](=O)[O-])nn(CC)c(=O)c21,i,-3.0%
Cc1onc(-c2ccccc2)c1-c1csc(N/N=C/c2ccccc2Cl)n1,u,-6.8%
CCOC(=O)C1=C(C)OC(=Cc2ccc(OC)cc2)C1=O,i,-3.7%
Cc1cc(C)cc(OCCCn2c(-c3ccc(Cl)cc3)nc3ccccc3c2=O)c1,4.1%,8.7%
Cc1ccc(C)c(Nc2ncnc3nc[nH]c23)c1,i,-21.7%
COc1cc(C=O)ccc1OCCOCCOc1ccccc1Cl,-14.0%,-10.6%
CCn1c(C)cc(O)cc1=O,-10.1%,-7.5%
Cc1ccccc1Nc1nc(N)nc(COC(=O)c2cccc(S(=O)(=O)N(C)c3ccccc3)c2)n1,-17.9%,-11.9%
Cc1ccc(Cl)cc1NC(=O)CCC(=O)NCc1ccco1,i,-5.5%
Cc1ccccc1Nc1nc(N)nc(CSc2nc3ccccc3c(=O)n2CCCO)n1,-22.0%,-9.6%
COc1cc(/C=N/NC(=O)C2(O)c3ccccc3-c3ccccc32)ccc1O,-12.5%,-16.1%
CC(=O)c1cccc(NC(=O)c2cc3nc(C)cc(C)n3n2)c1,x,-10.5%
Cc1cccc(N2CCN(C(=O)c3cc4cc(F)ccc4[nH]3)CC2)c1C,-23.1%,-17.4%
CC(C)c1ccc(CC(=O)N2CCC2(C)C(=O)Nc2cnc3ccccc3c2)cc1 (stereo not drawn),6.1%,-18.4%
O=C(COc1ccc(F)cc1)NCCN1CCCC1,-6.3%,-10.1%
CCCCCCC(=O)N1CCC(c2nc3c(nnn3Cc3ccccc3Cl)c(=O)[nH]2)CC1,-4.0%,-19.8%
O=C(NCC1CCCN1S(=O)(=O)c1cccs1)C(=O)Nc1ccccc1 (stereo not drawn),-5.2%,-6.8%
COc1ccc(NS(=O)(=O)c2cc3c(cc2C)NC(=O)CO3)c(OC)c1,-9.7%,0.6%&-5.2%
Cc1c(Cl)c([N+](=O)[O-])nn1CC(=O)N1CCc2ccccc2C1,x,u
O=C(NCc1ccc(F)cc1)OC1CC2CC1[C@H]1CCCCN1C2=O (stereo partly drawn),5.0%,-4.8%
COc1ccc(N2CC(NC(=O)COc3ccccc3)CC2=O)cc1OC (stereo not drawn),-2.0%,-6.8%

# (listing goes on)
Molecule,VACV mCherry inh,Vaccinia Venus
COc1ccc(NC(=O)c2cc(CN3CCCC3)on2)cc1Cl,1.2%,-9.3%
Cc1cc(Nc2ccc(Cl)cc2)nc(N2CCOCC2)n1,-16.9%,-25.6%
CCOC(=O)c1cnc2c(ccc3ccccc32)c1Nc1ccc(OC)c(OC)c1,-28.6%,-27.0%
CC(C)C[C@H]1CNC(=S)N1C[C@H]1CCCN1C[C@H](Cc1ccc(O)cc1)N1C[C@H](Cc2ccc(O)cc2)N(CC2CCCCCC2)C1=S,u,u
CC(=O)N(Cc1cccnc1)c1nc2ccc(F)cc2s1,-2.3%,-10.8%
COc1ccc(C(=O)COC(=O)c2cc(-c3ccccc3)nc3c(C)cccc23)cc1,-8.0%,0.3%
CNC(=O)c1[nH]nc2c1CCc1cc(OC)ccc1-2,u,-19.8%
c1csc(Cc2nn3c(-c4n[nH]c5c4CCC5)nnc3s2)c1,u,-18.9%
N#CCSc1nc2cc(C(=O)N3CCCC3)ccc2c(=O)n1Cc1ccccc1,i,-14.5%
